RecA intein inh – blocks M. tuberculosis RecA intein splicing. P9WHJ3. AID 2221. inhibition, %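 (about 9 µM by stock and volumes)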. cell-free RecA intein splicing, fluorescence. 290,000 tested, 0.75% active; in the data active = inhibition above about 30%; inconclusive = no clear call, values can overlap the other calls;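 also: 0% = vehicle wells and 100% = reference inhibitor control wells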
Target sequence (P9WHJ3 whole entry, looked up): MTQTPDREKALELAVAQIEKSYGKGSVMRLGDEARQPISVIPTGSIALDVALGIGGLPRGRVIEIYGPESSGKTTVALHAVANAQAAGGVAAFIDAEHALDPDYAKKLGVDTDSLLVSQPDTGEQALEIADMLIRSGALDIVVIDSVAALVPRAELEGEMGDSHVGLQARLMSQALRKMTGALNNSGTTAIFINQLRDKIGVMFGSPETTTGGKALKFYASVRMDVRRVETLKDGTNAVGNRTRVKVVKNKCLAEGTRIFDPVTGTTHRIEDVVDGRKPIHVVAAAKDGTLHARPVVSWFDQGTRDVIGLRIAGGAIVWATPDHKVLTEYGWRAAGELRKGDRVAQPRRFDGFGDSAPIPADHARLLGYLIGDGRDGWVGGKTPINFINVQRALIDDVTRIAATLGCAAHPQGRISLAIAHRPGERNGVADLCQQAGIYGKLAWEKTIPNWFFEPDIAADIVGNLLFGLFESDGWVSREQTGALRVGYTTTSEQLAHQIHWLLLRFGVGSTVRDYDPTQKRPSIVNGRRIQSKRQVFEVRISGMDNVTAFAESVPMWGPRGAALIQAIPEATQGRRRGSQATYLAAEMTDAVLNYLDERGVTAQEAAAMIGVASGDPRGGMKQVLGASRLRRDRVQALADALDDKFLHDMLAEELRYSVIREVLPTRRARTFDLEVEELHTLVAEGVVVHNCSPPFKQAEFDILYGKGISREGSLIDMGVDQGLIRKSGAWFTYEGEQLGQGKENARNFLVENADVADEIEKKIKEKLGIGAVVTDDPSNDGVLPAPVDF
Arbovirus anti – blocks arbovirus infection. arbovirus infection cell-based antiviral screen. inhibition, % at 10 µM. 200,000 tested, 0.37% active. AID 1251;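 active = inhibition from about 30%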;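 also: bluetongue infection of BSR cells; cell survival read as ATP light after 72 h; 0% = infected wells without compound and 100% = uninfected wells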
YopH inh – blocks Yersinia enterocolitica YopH tyrosine phosphatase; 140,000 tested, 0.16% active; fluorescence Ex485/Em525; inhibition, %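 (about 10 µM by stock and volumes)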;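 active = inhibition of 50% or more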;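 also: controls were vehicle for no effect and minimum signal wells for full effect; inactives centre near -20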
Mtb growth – M. tuberculosis H37Rv growth inhibitors, H37Rv strain (AID 1626); M. tuberculosis H37Rv growth inhibition; higher % means a stronger effect; one-dose inhibition, % at 10 µM; IC50 in µM for titrated hits; 220,000 tested, 0.95% active;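 active = confirmed in a dose series; inconclusive = inhibition above 80% but not taken into the dose series; inactive = below 80% or under 30% at every dose of the series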;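 also: bacteria incubated seven days before Alamar blue readout; 0% = bacteria only wells and 100% = bacteria with antibiotic wells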
Mtb bLac sens – beta-lactam sensitization of Mtb H37Rv; 330,000 tested, 0.27% active; inhibition, % at 25 µM; M. tuberculosis H37Rv growth with meropenem, percent inhibition; hits of this screen are not shown here; AID 434955;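 active = about 74% or more and at least 40 points above the plate without the antibiotic, then above 30% in a dose series; inconclusive = first-round hits that could not be retested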;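 also: growth measured after seven days incubation then overnight dye step; 0% = bacteria only wells and 100% = bacteria with antibiotic; twin plates without the antibiotic show which effects depend on it; some results filed as inactive read as strong as hits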
Arbovirus anti repeat – also measured in Arbovirus anti; calls as there; inhibition, %; measured here: 10K subset replicate screen; many hits read low in the repeat;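 first of two repeat runs on a subset; 0% = infected and 100% = uninfected wells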
The depositor's hits bear a star; u = inconclusive; x = not tested or not shown; & = joins results of further samples. Only part of the results is shown; the hit share may differ from the screen's.

SMILES	RecA intein inh	Arbovirus anti	YopH inh	Mtb growth	Mtb bLac sens	others
CC(C)(C)n1nnnc1C(c1cccs1)N1CCN(Cc2ccc3c(c2)OCO3)CC1 (configuration not stated)	-0.6	9.8	-11.7	2.4%	1.7
COc1ccc(NC(=O)c2ccccc2N(Cc2ccccc2)S(C)(=O)=O)cc1OC	0.5	7.8	x	-2.2%	-4.0
Cc1ccc(S(=O)(=O)N2CC(=O)Nc3ccccc32)c(C)c1NS(C)(=O)=O	-1.3	x	x	x	-5.8
COc1ccc(C(C)(C)C)cc1NC(=O)CCNC(=O)c1ccco1	-0.8	x	x	x	-0.8
NC(=O)CC(NC(=O)Cc1cccc2ccccc12)c1ccc(N2CCC(N3CCCC3)CC2)c([N+](=O)[O-])c1 (configuration not stated)	0.0	x	x	x	-8.0
Cc1ccc(Cn2c(N3CCCCCC3)nc3c2c(=O)[nH]c(=O)n3C)cc1	x	10.1	-6.1	5.8%	-13.7
Cc1cccc(SCC(=O)Nc2ccc3c(c2)OCCO3)c1	1.1	x	x	x	-3.5
CCOC(=O)C1(CCCc2ccccc2)CCN(C(=O)CCOC)CC1	2.7	0.2	x	3.6%	-6.0
[O-]/C(=C(\C(=S)Nc1cccc2ccccc12)[n+]1ccccc1)c1ccc(Cl)s1	11.8	-1.5	1.5	-1.7%	-0.8
CC(C)Oc1ccc(N2CC(C(=O)Nc3ccccc3C(=O)NC3CC3)CC2=O)cc1 (configuration not stated)	3.3	x	x	x	-8.3
O=C(COc1ccccc1C(=O)NCc1ccncc1)Nc1ccc(Br)cc1	1.0	18.5	x	4.7%	-10.3
CC1CCCCC1NC(=O)/C(C#N)=C/c1ccc2c(c1)OCCO2 (configuration not stated)	8.7	7.7	-42.7	16.4%	18.3
Cc1cc(Cl)ccc1NNC(=O)c1cccs1	0.1	x	x	65.9%	97.2
Cc1nc2ccc3nc(NC(=O)c4ccc5c(c4)OCCO5)sc3c2s1	-3.7	14.6	-21.8	-7.4%	3.8
CN(C)c1ccc(NC(=S)NC23CC4CC(CC(C4)C2)C3)cc1	1.1	x	x	x	46.6
O=C1COc2ccc(S(=O)(=O)NCc3ccccc3)cc2N1	1.6	x	x	x	-3.6
COc1ccc2c(c1OC)C(=O)O[C@@H]2[C@H]1c2c(cc3c(c2OC)OCO3)CCN1C	x	-7.7	-20.5	-15.0%	0.8
NS(=O)(=O)c1ccc(CCNC(=O)c2cc(=O)[nH]c3ccccc23)cc1	-1.4	x	x	x	1.7
COc1c(OC2OC(C(=O)O)C(O)C(O)C2O)cc(O)c2c(=O)cc(-c3ccccc3)oc12 (configuration not stated)	-2.5	3.5	-48.1	-6.8%	-8.9
O=C1CC(c2ccccc2)CC(O)=C1C=NCc1ccccc1Cl (configuration not stated)	x	-17.4	-45.5	x	18.2
O=C(NC(=S)NCc1ccc2c(c1)OCO2)c1ccccc1	-5.6	-3.1	-24.8	4.5%	-7.3
O=C(O)c1ccccc1N/C=C\[N+](=O)[O-]	-0.9	2.5	x	6.6%	-6.7
CN(C)c1ccnc(SCc2ccccc2Cl)c1C#N	1.0	-3.9	-24.0	11.8%	x
CCOC(=O)Nc1ccc2c(COC(=O)CNS(=O)(=O)c3cccc(Br)c3)cc(=O)oc2c1	0.5	-0.8	-27.7	1.4%	0.7

Quoted at random: two compounds from above.
SMILES	RecA intein inh	Arbovirus anti	YopH inh	Mtb growth	Mtb bLac sens	others
COc1ccc(NC(=O)c2ccccc2N(Cc2ccccc2)S(C)(=O)=O)cc1OC	0.5	7.8	x	-2.2%	-4.0
CCOC(=O)C1(CCCc2ccccc2)CCN(C(=O)CCOC)CC1	2.7	0.2	x	3.6%	-6.0

The main list resumes with the 2 entries that preceded the break.
SMILES	RecA intein inh	Arbovirus anti	YopH inh	Mtb growth	Mtb bLac sens	others
CN(C)c1ccnc(SCc2ccccc2Cl)c1C#N	1.0	-3.9	-24.0	11.8%	x
CCOC(=O)Nc1ccc2c(COC(=O)CNS(=O)(=O)c3cccc(Br)c3)cc(=O)oc2c1	0.5	-0.8	-27.7	1.4%	0.7
Cc1oc(-c2ccccc2F)nc1CS(=O)CC(=O)NCc1cccs1 (configuration not stated)	0.7	3.4	x	-12.1%	7.3	Arbovirus anti repeat=-1.0
NC(=O)CS(=O)(=O)c1nc2ccccc2n1Cc1ccccn1	2.1	11.5	x	4.0%	1.3
CCCN(C(=O)COc1ccc(Cl)cc1Cl)c1c(N)n(Cc2ccccc2)c(=O)[nH]c1=O	1.5	-4.8	x	6.7%	-2.1
CCCCS(=O)(=O)N1CCCC(C(=O)N2CCOCC2)C1 (configuration not stated)	1.9	x	x	x	-2.1
CC(C)Nc1nc(NC(C)C)nc(NS(=O)(=O)c2ccc(N)cc2)n1	0.8	-2.3	-18.6	-8.3%	-19.5
Cn1nccc1C(=O)Nc1sc2c(c1C(N)=O)CCCC2	-0.9	3.8	x	-5.0%	19.2
COc1ccc(N=C2SCC(=O)N2CCc2ccc(OC)c(OC)c2)cc1	-0.7	x	x	0.2%	-5.4
COc1ccccc1N1CCN(/N=C/c2ccc(OC)c(OC)c2OC)CC1	2.7	-3.7	x	2.1%	-3.5
Cc1cc(Br)cc(Cl)c1OCC(=O)NC(=O)NCc1ccccc1	4.4	-3.8	-29.1	-3.7%	-1.3
CCN(CC(=O)NCc1cccs1)c1ccc(S(=O)(=O)N2CCN(C)CC2)cn1	-1.1	x	x	-7.1%	1.9
O=C(C1CCCO1)N1CCN(C(=S)Nc2ccccc2F)CC1 (configuration not stated)	0.1	7.0	-31.2	1.4%	5.2
COc1ccc(C(=O)NC(C)c2nnc(SCC(=O)NC3CCCC3)n2C)cc1 (configuration not stated)	-3.1	x	x	x	-0.1

Compounds from the list above that contain an aryl thioether with sulfur outside any ring (3):
SMILES	RecA intein inh	Arbovirus anti	YopH inh	Mtb growth	Mtb bLac sens	others
Cc1cccc(SCC(=O)Nc2ccc3c(c2)OCCO3)c1	1.1	x	x	x	-3.5
CN(C)c1ccnc(SCc2ccccc2Cl)c1C#N	1.0	-3.9	-24.0	11.8%	x
COc1ccc(C(=O)NC(C)c2nnc(SCC(=O)NC3CCCC3)n2C)cc1 (configuration not stated)	-3.1	x	x	x	-0.1

(continued)
SMILES	RecA intein inh	Arbovirus anti	YopH inh	Mtb growth	Mtb bLac sens	others
Fc1ccc(Nc2cccc3nccnc23)cc1	3.2	-4.3	-0.9	3.3%	2.7
Cc1ccc(NS(=O)(=O)c2cc(C(=O)NCc3ccccn3)ccc2Cl)cc1	-1.9	1.4	-45.7	2.3%	-1.1
O=C(CSCC(=O)Nc1ccc2ccccc2c1)NCc1ccccc1	-1.8	6.4	-23.3	35.4µM*	95.2
CCc1ccc(S(=O)(=O)Nc2nnc(N)s2)cc1	-3.5	x	x	x	7.2
COc1ccc(OCc2nc3ccc(S(=O)(=O)Nc4ccccc4Cl)cc3[nH]2)cc1	5.8	5.1	-7.5	4.2%	6.4
CC(=O)N/N=C\c1cccc(OC/C=C/c2ccccc2)c1	1.7	x	x	x	2.8
CCc1cccc(C)c1NC(=O)CSc1nnc(Cc2csc(C)n2)o1	-4.2	x	x	x	-12.9
Cc1nnc2c(NC(C)C)nc3ccccc3n12	2.7	-10.1	-34.7	-4.9%	4.9
COc1cccc(C(C)NC(=O)c2c(F)cccc2Cl)c1 (configuration not stated)	9.6	-0.4	-30.0	8.5%	0.7
O=C(Nc1ccc(F)cc1)c1cccnc1Oc1ccccc1	-1.1	x	x	x	3.9
CCOC(=O)C1[C@H]2C(=O)N(CCCOC)C[C@]23C=C[C@H]1O3 (some centres not stated)	0.6	1.3	-32.9	-3.5%	-7.7
COc1ccc(CN2CCNC(=O)C2CC(=O)NCc2csc(C(C)C)n2)c(OC)c1 (configuration not stated)	2.7	-12.8	x	2.8%	-14.6
Clc1ccc(OCCCCSc2ncccn2)cc1	-1.5	-2.8	13.0	5.6%	2.4
Cc1ccc(C(=O)OCC(=O)NC2CCCC2)cc1C	-1.3	x	x	x	0.8
O=C1CCN(C(=O)CSc2ccc(Cl)cc2)N1	3.9	6.7	x	6.0%	-3.7
C=C(Cl)COC(=O)C1C2C=CC(C2)C1C(=O)O (configuration not stated)	-1.9	1.2	-22.7	-1.9%	13.9
CSc1ccccc1OCc1cc(C(=O)N2CCN(c3ccccc3)CC2C)no1 (configuration not stated)	7.4	x	x	x	u
COc1ccc(CCC(=O)NC(C)c2ccccc2)cc1OC (configuration not stated)	0.0	x	x	x	-1.8
O=C(NC(=S)NC1CCS(=O)(=O)C1)c1cccs1 (configuration not stated)	-0.7	1.4	-25.9	-1.1%	5.7
Cc1cc(Cl)ccc1OCC(=O)N1CC(C)CC(C)C1 (configuration not stated)	3.1	-1.4	-22.6	-1.9%	6.6
CC(C)c1ccc2c(c1)c(SC(C)(C)C)c(CC(C)(C)C(=O)O)n2Cc1ccc(Cl)cc1	0.3	-21.8	x	-0.1%&3.6%	2.6&-4.1
Cc1c(NC(=O)NCc2ccccc2)c(=O)n(-c2ccccc2)n1C	-2.7	-4.6	-37.1	-15.4%	-6.4
Cc1nc2ccc(C(=O)N3CCSCC3)cc2s1	-0.7	7.2	-26.5	-2.6%	-7.5
C=C1CCN([C@@H](CC(C)C)C(=O)NCc2ccc(Cl)c(Cl)c2)S(=O)(=O)c2ccccc21	4.7	x	x	4.0%	-5.8
O=C(c1ccc(-c2nc3ccccc3s2)s1)N1CCOCC1	x	-8.2	x	7.0%	0.1
COC(OC)c1ccc(C#N)c(SCc2ccccc2)n1	2.1	x	x	-6.2%	4.3
COc1cc(OC)c(-c2c3cc(O)c(=O)cc-3oc3cc(O)c(O)cc23)cc1OC	x	-16.9	-14.8	22.7%	37.0
CN(Cc1ccccc1)C1CCN(Cc2ccccc2[N+](=O)[O-])CC1	-1.2	x	x	x	-5.0
C/C(=N\NC(=O)c1ccc(N(C)C)cc1)c1ccc(C)cc1C	1.8	-16.3	-24.8	2.4%	3.3
Cc1noc(C)c1S(=O)(=O)N1CCCC(C(=O)N2CCc3ccccc3C2)C1 (configuration not stated)	3.2	-15.2	-28.5	-8.1%	-3.2
O=C(COc1ccc(Cl)cc1Cl)Nc1ccc(CN2CCCCC2)cc1	0.3	7.7	x	7.6%	-8.2
CCCCCC(=O)Nc1c(-c2ccc(OC)cc2)c(=O)c2ccccc2n1C	0.4	5.2	-23.5	-16.0%	u
CN(C)c1ccc(Nc2nc(-c3cccnc3)cs2)cc1	-2.7	4.7	1.3	-6.0%	2.9
O=S(=O)(c1ccc(F)cc1)N1CN2CCN(C2)C1	-5.8	x	x	x	1.2
Cc1ccc2nc(Nc3ccccc3)c(/C=N/O)c(=O)n2c1	2.3	-14.1	-10.6	6.9%	39.6
COc1cccc(OC)c1C(=O)NNC(=O)c1cccnc1	x	x	x	-7.1%	-7.7
CCOc1ccc(/C=N/NC(=O)c2nnn(-c3nonc3N)c2-c2cccs2)cc1	-2.4	x	x	x	-7.5
O=C(O)c1ccc(CSc2nnc(-c3ccco3)o2)cc1	-0.2	11.8	-37.6	-5.2%	4.1	Arbovirus anti repeat=8.1
O=[N+]([O-])c1cc(-c2nc(-c3ccncc3)no2)cc([N+](=O)[O-])c1	-2.2	-10.9	-10.6	u	99.1
CCN(CC)C(=O)Cn1cc(C(=O)C(=O)NCc2cccs2)c2ccccc21	-5.2	14.2	x	x	-0.8
CSc1ccc(S(=O)(=O)N(C)Cc2ccccc2)cc1	2.2	7.5	x	4.5%	0.3
c1cn(CC2(Cn3ccnc3)COC2)cn1	6.1	0.7	-25.4	-0.9%	-2.1
C=CCSc1nc(N2CCOCC2)c2c(c1C#N)CC(C)(C)N(C)C2	-0.5	x	x	-8.1%	-7.8
CC(NC(=O)c1ccco1)c1nc(-c2ccccc2Cl)no1 (configuration not stated)	0.4	x	x	x	-1.3
CS(=O)(=O)n1nc(OC(=O)c2cc(Br)ccc2Cl)cc1N	3.6	5.5	x	2.2%	3.6
O=C1CC(N2CCN(c3ccccc3F)CC2)C(=O)N1c1ccc2c(c1)OCCO2 (configuration not stated)	-0.4	1.0	-25.9	-6.6%	-1.0
COc1cc(OC)cc(C(=O)Nc2ccc(Cn3ccnc3)cc2)c1	-0.9	x	x	x	3.5
COc1ccccc1C(CNc1ccc(S(=O)(=O)N2CCCC2)cc1[N+](=O)[O-])N(C)C (configuration not stated)	3.5	x	x	x	-8.1
CCCc1nc2ccccc2c(=O)n1-c1c(C)n(C)n(-c2ccccc2)c1=O	-1.5	8.0	29.4	-0.3%	-13.9
O=C1c2ccccc2C(=O)N1CCSc1nnc(-c2ccco2)n1Cc1ccccc1	3.2	2.8	-21.6	-11.9%	-5.1
CCOC(=O)c1ccc(N/C=C2/CCCC(C)C2=O)cc1 (configuration not stated)	1.2	-5.0	-0.1	10.9µM*	98.6
O=[N+]([O-])c1cccnc1N/N=C/c1ccccc1O	0.4	-27.3	x	15.4%	92.6
